High-throughput results (PubChem)
Cruzain noTriton = qHTS Assay for Promiscuous and Specific Inhibitors of Cruzain (without detergent). 200,000 tested, 2.3% active. AID 1476, 2009. purified cruzain, Z-FR-AMC fluorescence, no detergent. Cruzipain (Trypanosoma cruzi), P25779. Potency, µM, without a hit: max response, negative = inhibition, usual class: inhibitors;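 also: plate controls were enzyme without inhibitor for no effect and buffer without enzyme for full effect; nearly all actives have a fitted effect of over 40% in size; top concentration of the series not given in the record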
Target sequence (P25779 123-467 limits assumed): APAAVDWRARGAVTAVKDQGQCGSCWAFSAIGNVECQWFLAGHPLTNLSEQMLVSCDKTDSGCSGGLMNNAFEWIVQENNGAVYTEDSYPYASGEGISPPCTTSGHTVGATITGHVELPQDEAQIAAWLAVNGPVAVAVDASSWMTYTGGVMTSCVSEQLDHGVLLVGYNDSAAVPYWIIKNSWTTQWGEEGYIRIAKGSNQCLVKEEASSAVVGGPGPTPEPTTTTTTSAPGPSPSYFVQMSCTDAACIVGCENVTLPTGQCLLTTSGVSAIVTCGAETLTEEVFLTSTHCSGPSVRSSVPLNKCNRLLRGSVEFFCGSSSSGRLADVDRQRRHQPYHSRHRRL
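Detergent-free condition (0.00005% Triton X-100) in acetate buffer pH 5.5 with DTT. 1.5 nM enzyme and compound were pre-mixed 15 min, then 2 uM Z-FR-AMC substrate added; reaction progress from fluorescence change between first and third reads (60 s).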
Cruzain Triton = qHTS Assay for Promiscuous and Specific Inhibitors of Cruzain (with detergent) | 200,000 tested, 0.43% active | purified cruzain, Z-FR-AMC fluorescence, 0.01% Triton | Potency, µM, for the others: max response, negative = inhibition, hits mostly inhibitors;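 also: plate controls were neutral wells for no effect and buffer without enzyme for full effect; nearly all actives have a fitted effect of over 40% in size; top concentration of the series not given in the record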
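In this qHTS format, compounds are incubated with 1.5 nM cruzain for 15 min at room temperature before 2 uM Z-FR-AMC is added. Release of AMC is followed at 360/450 nm, and progress is taken as the 60 s fluorescence difference.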
StopGo reporter = High Throughput Screening for Foot and Mouth Disease Virus Antivirals; human cells with a luciferase reporter of 2A StopGo recoding; control for the full effect not named in the record; Potency, µM (titrated, usually from 57.9 µM), for inactives: at the highest dose signal change, negative = less light; 410,000 tested, 1.2% active; active = well fitted falling curve with a large enough effect; inconclusive = small, poorly fitted or top-dose-only effect; inactive = no such curve, though single readings can be large or run the other way; tested in HEK293T cells; also: % is scaled to controls: 0 for no effect and ±100 for the full control effect; nearly all actives have a fitted effect of over 45% in size; luciferase light after 4 h
Marburg entry inh = qHTS for inhibitors of binding or entry into cells for Marburg Virus. Marburg virus pseudotyped entry inhibition, cell reporter; control for the full effect not named in the record; about a third of the inactives were read at about 46 µM. Potency, µM (doses to about 37.8 µM), inactives show at the top dose activity change, negative = inhibition, usual class: inhibitors. 300,000 tested, 1.8% active. AID 540276, 2011; active = well fitted inhibition curve with a large enough effect; inconclusive = small, poorly fitted or top-dose-only effect, or effect the other way; inactive = flat fitted curve, though single readings scatter; tested in HEK293 cells; about a fifth of its hits are not listed in these tables; also: % is scaled to controls: 0 for no effect and ±100 for the full control effect; luciferase read-out
NS1 inh = qHTS Assay for Inhibitors of Influenza NS1 Protein Function. S. cerevisiae slowed by influenza A NS1, growth recovery by OD600. Potency, µM (doses to about 46.1 µM), without a hit: at the highest dose activity, positive = more growth. 270,000 tested, 0.4% active; active means well fitted rising curve with a large enough effect; inconclusive means small, poorly fitted or top-dose-only effect; inactive means no such curve, though single readings can be large or run the other way; also: nearly all actives have a fitted effect of over 50% in size
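S. cerevisiae expressing influenza A NS1, grown in glucose, washed, then diluted 1:100 into pH 6.0 -URA galactose medium with 23 nl compound. Growth recovery read as OD600; NS1-free strain serves as control.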
Lassa entry inh = qHTS for Inhibitors of binding or entry into cells for Lassa Virus. Potency, µM (highest dose often 37.9 µM), without a hit: top-dose activity change, negative = inhibition, actives largely listed as inhibitors. Lassa virus pseudotype entry inhibition, cell reporter; control for the full effect not named in the record. AID 540256, 2011. 300,000 tested, 1.2% active; active means well fitted inhibition curve with a large enough effect; inconclusive means small, poorly fitted or top-dose-only effect, or effect the other way; inactive means flat fitted curve, though single readings scatter; tested in HEK293 cells; also: % is scaled to controls: 0 for no effect and ±100 for the full control effect; nearly all actives have a fitted effect of over 50% in size; luciferase read-out
SARS PLpro yeast = qHTS of Yeast-based Assay for SARS-CoV PLP; 330,000 tested, 0.19% active; AID 485353, 2010; Potency, µM (highest dose often 32.9 µM), for the others: at the top dose activity, positive = growth rescue; S. cerevisiae expressing SARS-CoV PLpro, growth rescue; control for the full effect not named in the record; active means well fitted rising curve with a large enough effect; inconclusive means small, poorly fitted or top-dose-only effect; inactive means no such curve, though single readings can be large or run the other way; also: 0% is about no effect; nearly all actives have a fitted effect of over 55% in size; growth read by luminescence after 48 h
RE007 growth inh = qHTS Assay for Inhibitors of the HIV-1 protein Vpr. S. pombe RE007 Vpr strain, BacTiter-Glo ATP luminescence, 24 h; control for the full effect not named in the record. Potency, µM (highest dose often 92.2 µM), without a hit: at the top dose activity change, negative = less growth. 360,000 tested, 0.21% active. AID 651644, 2012; active = well fitted falling curve with a large enough effect; inconclusive = small, poorly fitted or top-dose-only effect; inactive = no such curve, though single readings can be large or run the other way;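 also: % is scaled to controls: 0 for no effect and ±100 for the full control effect; nearly all actives have a fitted effect of over 50% in size; the assay follows cell death caused by Vpr and the record does not say whether a fall means rescue or toxicity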
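Fission yeast RE007 carrying one integrated HIV-1 vpr copy, seeded at OD 0.01 in PMG+AL medium with 23 nL pinned compound. Grown 24 h at 30 degrees; viability read by BacTiter-Glo luminescence after 5 min.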
Active calls of the source: *; ? = inconclusive; . = not tested or not shown; & = joins results of further samples; [ ] = another dose, or the depositor's remark. Unless noted, calls follow the shape of the dose curve; as a rule, active = well fitted curve in the direction sought with a large enough effect; inconclusive = small, poorly fitted or top-dose-only effect, or another doubt; inactive = no such curve, though single readings can be large; an effect the other way counts as inactive or inconclusive. Potency is read from the fitted curve at half-maximal effect.

#1 O=S(=O)(N/N=C/c1c(F)cccc1Cl)c1ccccc1
#2 O=C(NNS(=O)(=O)c1ccccc1F)c1ccccc1-n1cccc1
#3 O=C(c1ccc(-n2cccc2)cc1)N1CCCCC1
#4 Cc1ccc(S(=O)(=O)CCC(=O)OCC(=O)N(C)CC(=O)Nc2ccc(F)cc2)cc1
#5 Brc1cc2c(cc1Cn1c(-c3cncs3)nc3ccccc31)OCO2
#6 O=C(Cn1nc([N+](=O)[O-])nc1Br)NC(c1ccccc1)c1ccccc1
#7 O=C(COc1ccc(Br)cc1Cl)Nc1ncn[nH]1
#8 O=[N+]([O-])c1cccc(N/N=C/c2cccc3ccccc23)c1
Screen / compound no.	1	2	3	4	5	6	7	8
Cruzain noTriton	0%	.	.	.	?	-22%	16%	-27%
Cruzain Triton	4.1%	.	.	.	-4.1%	4.9%	-0.7%	-3.6%
StopGo reporter	-6%	4%	0%	-4%	?	?	-6%	4%
Marburg entry inh	-27%	.	17%[46.1 µM]	19%[46.1 µM]	-18%	?	?	-17%
NS1 inh	-15%	2%	.	.	7%	15%	.	-21%
Lassa entry inh	-14%	.	2%	14%	16%	-3%	-26%[46.1 µM]	-31%
SARS PLpro yeast	2%	4%	-2%	2%	0%	9%	.	-48%
RE007 growth inh	2%	-1%	-2%	7%	16%	9%	.	50%

#9 O=C(Nc1ccncc1)c1cccc(S(=O)(=O)N2CCc3ccccc32)c1
#10 CCCCOC(=O)CCNc1n[nH]c(=O)[nH]c1=O
#11 NCC1OC(O[C@@H]2[C@H](O)[C@@H](OC3C(O)C(N)CC(N)C3OC3OC(CO)C(O)C(O)C3N)O[C@@H]2CO)C(N)C(O)C1O (stereo not given in full)
#12 O=C(C1CCC1)N1CCCc2cc(S(=O)(=O)N3CCN(c4ccccc4)CC3)ccc21
#13 COc1ccc(Cn2c(O)c(C=Nc3ccc(C)cc3)c3ccccc3c2=O)cc1
#14 O=C(NCCCn1ccnc1)c1ccc(COc2ccccc2)o1
#15 Cc1ccccc1Cn1nc(C)c(NC(=O)c2cc(-c3ccc(F)cc3)on2)c1C
#16 Cc1ccc(CNC(=O)CCNS(=O)(=O)c2ccc(C)cc2)cc1
Screen / compound no.	9	10	11	12	13	14	15	16
Cruzain noTriton	.	1%	-9%	-10%	13µM*	.	-14%	7%
Cruzain Triton	.	2.4%	-2.6%	0.5%	-0.5%	.	-2.5%	6.2%
StopGo reporter	?	-11%	.	?	-28%	-5%	-22%	-3%
Marburg entry inh	?	-18%	-4%	.	14%	-6%	?	10%
NS1 inh	.	?	-3%	?	10%	.	.	9%
Lassa entry inh	-16%	-3%	.	11µM*	6%	5%	11%[46.1 µM]	-15%
SARS PLpro yeast	3%	0%	.	-11%	8%	1%	.	17%
RE007 growth inh	-15%	-1%	.	-3%	1%	-4%	.	-14%

#17 CC(C)c1ccc(NC(=O)CCC(=O)NCc2ccco2)cc1
#18 CCNC(=S)N/N=C/c1c(Cl)cccc1Cl
#19 CCC1CN(C(=O)N2CCC(C(=O)NCCc3ccccc3OC)CC2)c2ccccc2O1 (stereo not given)
#20 O=C(COc1ccccc1)Nc1ccc(N2CCN(C(=O)c3cccs3)CC2)cc1
#21 COc1ccc(NC(=O)CN(C)CC(=O)Nc2ccc(Cl)c(S(=O)(=O)N(C)C)c2)cc1
#22 CCCN1CCN(CC(=O)Nc2nncs2)CC1
#23 CCn1c(CC(=O)Nc2cccc(OC)c2)nnc1SCC(=O)Nc1nccs1
#24 O=C(CSc1ncccn1)NCCC1=CCCCC1
Screen / compound no.	17	18	19	20	21	22	23	24
Cruzain noTriton	.	-18%	.	.	.	.	-6%	.
Cruzain Triton	.	-1.4%	.	.	.	.	-1.9%	.
StopGo reporter	-10%	39%[activator]	-18%	?	-7%	-1%	1%	1%
Marburg entry inh	-37%	-1%	-21%[46.1 µM]	?	-7%[46.1 µM]	.	?	?
NS1 inh	8%	11%	-11%	-2%	.	0%	7%	.
Lassa entry inh	-28%	18%	-8%[46.1 µM]	-8%	1%[46.1 µM]	.	18%[14.3 µM]	2%
SARS PLpro yeast	4%	?	-2%	-2%	6%	7%	5%	-3%
RE007 growth inh	2%	1%	-5%	-7%	6%	4%	-7%	10%

#25 CCOC(=O)c1sc2ncn(C(C)C(=O)OCC)c(=O)c2c1C (stereo not given)
#26 COC(=O)c1cc(NC(=O)CSc2nncn2C)cc(C(=O)OC)c1
#27 c1ccc(CCNCc2cccnc2)cc1
#28 COc1ccc(Cl)cc1N(CC(=O)N1CCCCCC1)S(C)(=O)=O
#29 O=C(CSCc1c(F)cccc1Cl)NCCSCc1ccco1
#30 COc1cc(SC)ccc1C(=O)NCCc1ccccc1
#31 CC12CCC(=O)N1C(C(=O)N1CCN(S(=O)(=O)c3cccc(Cl)c3)CC1)CS2 (stereo not given)
#32 CC(C)COC(=O)Nc1nnc(SCCOc2ccccc2)s1
Screen / compound no.	25	26	27	28	29	30	31	32
Cruzain noTriton	-8%	1%	.	.	.	7%	.	?
Cruzain Triton	-0.4%	3.8%	.	.	.	-2.9%	.	2.7%
StopGo reporter	7%	5%	-10%	0%	12%	27%	0%	-13%
Marburg entry inh	-17%	2%	.	.	3%[46.1 µM]	?	7%[46.1 µM]	-7%
NS1 inh	-74%	2%	13%	-6%	-7%	-23%	.	-12%
Lassa entry inh	14%	0%	.	.	22%[46.1 µM]	?	-2%	-6%
SARS PLpro yeast	0%	-1%	6%	-1%	0%	6%	1%	5%
RE007 growth inh	-6%	8%	3%	1%	-20%	-29%	-7%	-2%

Among those listed so far, 3 have bromine.
#5 Brc1cc2c(cc1Cn1c(-c3cncs3)nc3ccccc31)OCO2
#6 O=C(Cn1nc([N+](=O)[O-])nc1Br)NC(c1ccccc1)c1ccccc1
#7 O=C(COc1ccc(Br)cc1Cl)Nc1ncn[nH]1
Screen / compound no.	5	6	7
Cruzain noTriton	?	-22%	16%
Cruzain Triton	-4.1%	4.9%	-0.7%
StopGo reporter	?	?	-6%
Marburg entry inh	-18%	?	?
NS1 inh	7%	15%	.
Lassa entry inh	16%	-3%	-26%[46.1 µM]
SARS PLpro yeast	0%	9%	.
RE007 growth inh	16%	9%	.

(listing goes on)
#33 CCN(CC)S(=O)(=O)c1cccc(NN=c2c(=O)c3ccccc3c2=O)c1
#34 Cc1onc(-c2ccccc2)c1C(=O)n1cccn1
#35 CCC(CC)C(=O)NCCN1CCN(C(=O)C(CC)CC)CC1
#36 CCN(CC)CCCNC(=O)c1c2c(nc3ccccc13)C(=O)N(C1CCCCC1)C2
#37 Cc1ccc(OCC(=O)Nc2ccc([N+](=O)[O-])cc2)cc1
#38 O=C(CCCn1c(=S)[nH]c2cc3c(cc2c1=O)OCO3)N1CCN(c2ccccc2F)CC1
#39 CCC1CCCCN1CCCNC(=O)CSc1nc2nc(C)c(Cc3ccccc3)c(C)n2n1 (stereo not given)
#40 CCCCCOc1ccc(NC(=O)C(=O)NCC2CCCN2CC)cc1 (stereo not given)
Screen / compound no.	33	34	35	36	37	38	39	40
Cruzain noTriton	.	-12%	1%	1%	-21%	-14%	.	.
Cruzain Triton	.	4.2%	3.0%	-3.3%	-2.2%	-0.3%	.	.
StopGo reporter	9%	3%	8%	9%	-6%	4%	-1%	1%
Marburg entry inh	4%[46.1 µM]	-13%[46.1 µM]	-21%	.	2%	-26%&-26%	-13%[46.1 µM]	-3%[46.1 µM]
NS1 inh	5%	-10%	-4%	.	13%	12%	-2%	3%
Lassa entry inh	6%	-2%	?	-2%[46.1 µM]	-7%	-14%	.	-2%
SARS PLpro yeast	0%	4%	5%	.	4%	2%	5%	0%
RE007 growth inh	-10%	34%	7%	.	3%	-11%	4%	-12%

#41 COc1ccc(C)cc1S(=O)(=O)n1cnc(C)c1
#42 O=C(COCc1cc(-c2ccc3c(c2)OCO3)on1)N1CCN(c2cccc(Cl)c2)CC1
#43 COc1ccc(NCc2cc3cc4c(cc3n(CC(=O)Nc3ccc(C)c(C)c3)c2=O)OCO4)cc1
#44 CCCn1nc(C(=O)NNC(=O)c2cccc(C)c2)c2ccccc2c1=O
#45 O=C(Cn1cnc2c(nnn2Cc2ccc(F)cc2)c1=O)N1CCCCC1
#46 CCOc1ccc(NC(=O)N(Cc2ccc(CC)cc2)Cc2cn[nH]c2-c2ccc(OC)cc2)cc1
#47 CCc1cccc(NC(=O)c2ccc3c(=O)n4c(nc3c2)CCCCC4)c1
#48 COc1ccc(/C(O)=C2/C(=O)C(=O)N(CCCN(C)C)C2c2ccccc2)cc1OC (stereo not given)
#49 c1ccc(-c2nnc(N3CCOCC3)c3ccccc23)cc1
#50 CCCOCc1cc(CN2CCN(c3ccccc3OC)CC2)c(O)c2ncccc12
#51 Cc1ccc(CCNC(=O)C2CCC(=O)N2Cc2cccnc2)cc1 (stereo not given)
Screen / compound no.	41	42	43	44	45	46	47	48	49	50	51
Cruzain noTriton	.	.	16µM*	.	-9%	2%	.	-10%	.	-3%	0%
Cruzain Triton	.	.	-2.6%	.	5.7%	-1.8%	.	-4.7%	.	-0.8%	4.0%
StopGo reporter	14%	-23%&-19%	8%	29%	-4%	?	-29%	-18%	-9%	-26%	0%
Marburg entry inh	14%	10%&10%[46.1 µM]	.	-3%	-21%	11%[46.1 µM]	.	7%	-2%[46.1 µM]	?	16%
NS1 inh	-10%	2%	.	.	-1%	.	-5%	0%	-2%	.	1%
Lassa entry inh	-8%	12%&-1%[46.1 µM]	-18%[46.1 µM]	0%	14%	9%[46.1 µM]	.	-3%	?	?	?
SARS PLpro yeast	28%	6%	.	-11%	1%	.	-2%	5%	1%	.	0%
RE007 growth inh	-2%	-4%	.	-14%	13%	.	-9%	-12%	7%	.	-8%

Compounds were not picked by outcome; any-hit rate near 4.8%.
